INS promoter inh: inhibitors of insulin promoter-driven GFP, primary screen, imaging, TRM-6 cells (human fetal islet line), eGFP reporter, cell count; reporter expression induced with tamoxifen; inhibition, % at 2 µM; 130,000 tested, 0.9% active; AID 1273, 2008;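 active = inhibition above the mean plus 3 SD, with well images judged a real hit on visual review, cut at about 60% in these data, passing the limit was not always enough; inconclusive = inhibition over the cutoff but images rejected on review; inactive = inhibition not above the cutoff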
RGS16-Gao: modulators of RGS16 binding to Galphao, primary screen, biochemical, human proteins, multiplexed bead flow cytometry; binding response (% of control), % at 10 µM; bead-based flow cytometry RGS16-Galphao binding, fluorescence; actives lie on both sides; 220,000 tested, 0.38% active; AID 1441, 2008;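 active = below 25% or above 175%, edge rows of some plates excepted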;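 note: Galphao activated by GDP with aluminum fluoride before binding; 100% = wells without compound and 0% = beads without RGS; some results beyond the cut were filed as inactive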
Target sequence (O15492 whole entry, looked up): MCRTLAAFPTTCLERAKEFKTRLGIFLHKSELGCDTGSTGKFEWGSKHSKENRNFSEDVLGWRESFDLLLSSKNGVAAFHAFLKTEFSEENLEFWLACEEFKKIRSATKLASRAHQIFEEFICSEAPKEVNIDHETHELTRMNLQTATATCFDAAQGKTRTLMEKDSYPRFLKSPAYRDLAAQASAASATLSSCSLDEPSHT
Target sequence (P09471 whole entry, looked up): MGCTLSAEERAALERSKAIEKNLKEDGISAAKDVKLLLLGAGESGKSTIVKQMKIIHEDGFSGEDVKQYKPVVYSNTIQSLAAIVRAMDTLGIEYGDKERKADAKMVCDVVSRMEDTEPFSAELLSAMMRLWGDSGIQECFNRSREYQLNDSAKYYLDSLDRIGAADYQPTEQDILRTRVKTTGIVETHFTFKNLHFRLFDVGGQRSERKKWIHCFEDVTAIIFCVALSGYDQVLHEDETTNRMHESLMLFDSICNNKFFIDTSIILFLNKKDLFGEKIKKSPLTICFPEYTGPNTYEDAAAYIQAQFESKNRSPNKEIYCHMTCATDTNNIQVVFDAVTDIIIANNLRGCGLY
GALR2 agonist: GALR2 receptor agonists, primary screen, cell-based | GALR2-expressing cells, agonist activation read-out | activation, %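 (tested at 5 µM)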 | 140,000 tested, 0.48% active | AID 803, 2007;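 active = above mean plus 3 SD of all compounds, about 5% in these data, not always enough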;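 note: 0% = vehicle buffer wells and 100% = reference agonist at full effect; tested in CHO reporter cells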
Target sequence (O43603 whole entry, looked up): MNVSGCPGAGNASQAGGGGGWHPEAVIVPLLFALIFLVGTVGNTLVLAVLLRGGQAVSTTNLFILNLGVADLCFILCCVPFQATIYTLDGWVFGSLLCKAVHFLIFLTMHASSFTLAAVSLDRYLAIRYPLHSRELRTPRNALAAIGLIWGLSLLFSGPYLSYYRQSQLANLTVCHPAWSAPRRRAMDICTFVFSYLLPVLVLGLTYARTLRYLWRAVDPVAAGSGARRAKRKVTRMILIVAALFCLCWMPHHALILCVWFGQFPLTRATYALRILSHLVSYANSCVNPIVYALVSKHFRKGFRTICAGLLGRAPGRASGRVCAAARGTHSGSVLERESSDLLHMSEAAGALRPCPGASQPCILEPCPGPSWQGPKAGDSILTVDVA
PKD1 kinase inh: inhibitors of human PKD1 kinase, biochemical, fluorescence polarization; Serine/threonine-protein kinase D1 (Homo sapiens), Q15139; PKD1 kinase fluorescence polarization assay; inhibition, %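 (about 10 µM by stock and volumes)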; 200,000 tested, 0.056% active;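 active = inhibition of 50% or more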;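 note: controls were vehicle for no effect and a reference inhibitor for full effect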
HSV replic up: enhancers of HSV replication in host cells, fold increase, host cell viability; 220,000 tested, 0.005% active; HSV replication augmentation in cells; maximum fold increase;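 active = peak rise of 1.5-fold or more in the series; inconclusive = self-fluorescent or not available for retest; tested in PC3 cells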;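 note: first round at 10 µM; read as green reporter fluorescence; hits show the peak of a series up to 25 µM; 1 = signal of infected wells without compound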
INS promoter inh cell count: second read-out of INS promoter inh, no call of its own (marks repeat the call); normalized cell count, %; measured here: cell count, toxicity; reference of the scale not given here;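 cells exposed to compound for 48 h; stained nuclei by imaging scaled within each plate; lower means fewer cells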
HSV replic up primary fold: recorded beside HSV replic up, whose call it bears; fold increase; compound at 10 µM; measured here: primary screen fold increase 10 uM; tested in PC3 cells;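 GFP signal in the first replicate; 1 = infected wells without compound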
* = called active by the depositor; i = inactive; ? = inconclusive; / = not tested or not shown. The order is random; any-hit rate near 1.2%.

item	SMILES	INS promoter inh	INS promoter inh cell count	RGS16-Gao	GALR2 agonist	PKD1 kinase inh	HSV replic up	HSV replic up primary fold
1	Cc1nn(-c2cccc(C(F)(F)F)c2)c(Cl)c1/C=N/n1cnnc1	/	/	105	-1.6	-5	i	1
2	CC1CCc2sc(-c3n[nH]c(=S)o3)cc2C1 (stereo unspecified)	/	/	101	/	-2	i	0.97
3	Cc1ccccc1Cn1cc(S(=O)(=O)CC(=O)Nc2nccs2)c2ccccc21	-260	110	99	-1.4	-3	i	0.89
4	Cn1c(=O)[nH]c(=O)c2c1nc(SCC(=O)O)n2CCc1ccccc1	-54	124	99	-1.8	-5	i	1
5	COc1ccc(CC(=O)NCc2n[nH]c(=S)n2-c2ccc(Br)cc2)cc1	-8	114	101	/	0	i	1.1
6	CC1CC(=S)Nc2ccccc2N1Cc1ccccc1 (stereo unspecified)	-19	122	94	-1.1	-1	i	0.93
7	COc1ccc(/C=N/NC(=O)Cn2cnc3c2c(=O)n(C)c(=O)n3C)cc1	/	/	98	/	/	i	0.93
8	C/C(CC(=O)NCc1ccccc1)=N\NC(N)=S	/	/	97	/	11	i	0.89
9	CC(CNCC1CCCO1)COc1ccccc1 (stereo unspecified)	-3	130	175	-2.0	-2	i	1
10	C1=C(c2ccccc2)CCN(c2nc3ccccc3n3cnnc23)C1	/	/	96	-1.3	-11	i	0.95
11	Cc1ccc(NC(=S)NCc2cccs2)c(C)c1	0	103	91	0.1	1	i	0.97
12	COC(=O)c1ccc(NC(=S)NC2CC3CCC2C3)cc1 (stereo unspecified)	25	113	99	-1.2	-1	i	0.9
13	COc1ccccc1Cn1c(SCC(N)=O)nc2c(oc3ccccc32)c1=O	/	/	100	/	1	i	0.96
14	COc1ccc(C(=O)C2CCCN(Cc3cnc(N4CCOCC4)s3)C2)c(OC)c1 (stereo unspecified)	/	/	100	/	3	i	0.87
15	Cc1nn(CC(=O)NCc2ccc(OC(C)C)cc2)c(=O)c2cc3occc3n12	/	/	99	-1.6	-2	/	/
16	CC(C)(C)c1ccc(C(=O)c2c[nH]c(C(=O)NCc3ccco3)c2)cc1	/	/	116	0.8	12	/	/
17	CC1CN(C2=N/C(=C/c3ccc4c(c3)OCO4)C(=O)N2)CC(C)O1 (stereo unspecified)	/	/	102	/	3	i	1.2
18	NCCSSCCN	/	/	99	/	/	i	0.92
19	CCOC(=O)Cn1c(CN(Cc2ccccc2)Cc2ccccc2)nc2c1c(=O)[nH]c(=O)n2C	-25	94	101	-0.1	5	i	0.76
20	COc1cc([N+](=O)[O-])cc(/C=N/NC(=O)C(C)Nc2cccc(C)c2)c1O (stereo unspecified)	31	86	106	-1.3	5	i	1.1
21	CCCCn1cnc2c([nH]c3cc(OC)ccc32)c1=O	-34	281	97	0.4	-5	i	1
22	COc1ccc(/C=C/C(=O)N(Cc2cccs2)C2CCS(=O)(=O)C2)cc1 (stereo unspecified)	/	/	100	/	/	i	1.2
23	CCOC(=O)c1cc(C(C)(C)C)nc(SC)c1C#N	/	/	101	/	/	i	0.99
24	O=C(NCc1ccco1)C(c1ccncc1)N(C(=O)Cc1cccs1)c1ccccc1 (stereo unspecified)	-182	31	104	/	4	i	1
25	Cc1cc(C)nc(SCc2nnc(SCC#N)n2-c2cccc(Cl)c2)n1	-10	124	101	0.4	-5	i	0.75

Sorted by SMILES length (highest first): part of the list above.
item	SMILES	INS promoter inh	INS promoter inh cell count	RGS16-Gao	GALR2 agonist	PKD1 kinase inh	HSV replic up	HSV replic up primary fold
19	CCOC(=O)Cn1c(CN(Cc2ccccc2)Cc2ccccc2)nc2c1c(=O)[nH]c(=O)n2C	-25	94	101	-0.1	5	i	0.76
16	CC(C)(C)c1ccc(C(=O)c2c[nH]c(C(=O)NCc3ccco3)c2)cc1	/	/	116	0.8	12	/	/
23	CCOC(=O)c1cc(C(C)(C)C)nc(SC)c1C#N	/	/	101	/	/	i	0.99
9	CC(CNCC1CCCO1)COc1ccccc1 (stereo unspecified)	-3	130	175	-2.0	-2	i	1

(cont.)
item	SMILES	INS promoter inh	INS promoter inh cell count	RGS16-Gao	GALR2 agonist	PKD1 kinase inh	HSV replic up	HSV replic up primary fold
26	COc1ccccc1NC(=O)c1ccc(NC(=O)CN(C)Cc2ccccc2F)cc1	/	/	98	/	7	i	0.95
27	CCN(C(=O)COC(=O)COc1ccc2c(C)cc(=O)oc2c1)C1CCS(=O)(=O)C1 (stereo unspecified)	0	142	105	/	2	i	0.89
28	CCc1ccccc1N(CC(=O)N1CCN(c2ccc(F)cc2)CC1)S(C)(=O)=O	-64	134	104	-1.2	-5	i	1.1
29	CC(Oc1ccccc1)c1ccnc(N)n1 (stereo unspecified)	/	/	98	/	6	i	0.97
30	O=C(COC(=O)c1ccccn1)Nc1ccccc1OC(F)F	/	/	91	/	0	i	0.94
31	O=C(Nc1ccccc1C(=O)O)c1cccc(F)c1	40	112	/	0.1	1	i	0.94
32	Cc1ccc(C(C)(C)C)cc1S(=O)(=O)Nc1cccc(S(=O)(=O)NC2=NCCC2)c1	31	98	99	-0.1	-10	i	0.93
33	CC1CCN(C(=S)Nc2ccc(F)cc2)CC1	25	121	72	-1.3	-11	i	1.1
34	COc1cc(/C=N/NC(=O)C(N)=O)ccc1OC(=O)c1cccs1	/	/	99	/	9	i	1
35	CN(CCc1ccccn1)C(=O)CCC1CCCN(C(=O)NC2CCCCC2)C1 (stereo unspecified)	/	/	106	/	-9	i	0.98
36	COc1ccc(N2C(=O)C(Cl)=C(NCc3ccccc3)C2=O)cc1	12	58	93	-1.7	-2	i	0.96
37	CC(C)CC(NS(=O)(=O)c1cccc(C(=O)O)c1)C(=O)O (stereo unspecified)	64	112	100	/	-3	i	0.93
38	COc1ccc(S(=O)(=O)N(C)CC(=O)NCc2ccco2)cc1	-6	99	103	-2.3	-5	i	0.89
39	O=c1c2ccccc2nc(N/N=C/c2ccc(O)cc2)n1O	36	95	95	0.1	6	/	/
40	C#Cc1ccc([C@H]2C=C(C(=O)N3CCOCC3)O[C@@H](OCc3ccc(CO)cc3)C2)cc1	/	/	97	/	8	/	/
41	CCCCN(C)C(=O)c1ccc2c(c1)N(CC)C(=O)c1ccccc1S2(=O)=O	14	87	106	-0.7	-7	i	0.87
42	Cc1ccc(S(=O)(=O)N2CCN(C(=O)c3ccccn3)CC2)cc1	12	155	100	/	0	i	0.9
43	CCOc1ccc(/C=N/NC(=O)c2nnn(-c3nonc3N)c2-c2ccc(OCC)cc2)cc1	25	130	102	0.8	-4	i	0.92
44	Cc1sc(NC(=O)c2cccs2)c(C(=O)OC(C)C)c1C	48	111	108	-0.3	-7	i	0.9
45	COc1ccc(S(=O)(=O)Nc2ccccc2OC)cc1NC(=O)CC1CC2CCC1C2 (stereo unspecified)	2	79	105	0.1	-12	i	0.87
46	COc1ccc(-c2nnc(SC(C)C(=O)NNC(=O)c3ccc(C)cc3)o2)cc1 (stereo unspecified)	-9	64	98	0.7	4	i	1
47	O=C(NCCN1C(=O)S/C(=C\c2cccs2)C1=O)c1ccco1	-83	147	96	/	0	i	0.96
48	COc1ccccc1CNC(=O)COC(=O)c1n[nH]c2ccccc12	-32	113	101	-1.2	-1	i	0.96
49	Cc1ccc(F)cc1NC(=O)Cc1ncc(C(F)(F)F)cc1Cl	/	/	104	-1.1	-6	i	1
50	O=C(C1CCN(CCCc2ccccc2)CC1)N(CCc1ccccc1)Cc1ccccc1	25	63	109	0.1	-18	/	/
51	CCOC(=O)c1c(NC(=O)c2ccc(N3C(=O)[C@@H]4[C@H](C3=O)[C@H]3C=C[C@@H]4C3)cc2)sc2c1CC(C)CC2 (stereo partly specified)	38	137	106	0.5	-8	i	0.82
52	CCCc1cc(N2CCN(c3ccccn3)CC2)n2nc(C)c(-c3ccccc3)c2n1	/	/	109	0.4	0	i	1
53	CCCCc1nc(N2CCOCC2)c(C#N)c2c1COC(C)(C)C2	44	131	99	-3.1	6	i	0.81
54	Clc1ccc(Oc2nc(Oc3ccc(Cl)cc3)nc(N3CCOCC3)n2)cc1	27	56	103	0.0	-10	i	1.2
55	CCOc1ccc2[nH]c(=O)c(CN(Cc3ccc(F)cc3)C(=O)c3ccco3)cc2c1	/	/	96	-0.5	-5	i	0.76
56	COC(=O)c1ccc(NC(=O)c2ccc(F)cc2)o1	9	90	101	-1.7	-11	i	0.85
57	COc1ccc(C2NC3=C(CCCC3)C(C#N)(C#N)C2(C#N)C#N)cc1 (stereo unspecified)	46	155	104	0.2	-3	?	/
58	O=[N+]([O-])c1cccnc1Oc1cccnc1	/	/	102	/	/	i	1.2
59	CC/C(=N/Nc1ccccc1)c1cnnc(-c2ccccc2)n1	-248	44	101	-1.9	-4	i	0.81
60	Nc1cccc(NP(=O)(c2ccccc2)c2ccccc2)c1	/	/	102	/	/	i	1.1
61	Cc1ccc(-n2nc(C)cc2NC(=O)CC#N)cc1	/	/	101	/	2	i	0.92
62	CCOC(=O)c1c(CSc2ccccc2)n(C)c2cc(Br)c(OCC(O)CNC(CO)(CO)CO)cc12 (stereo unspecified)	-36	99	99	2.7	-2	i	0.59
63	O=C(NCCOc1ccccc1)C1CCCN1C(=O)c1cccs1 (stereo unspecified)	/	/	103	0.5	-1	i	1.1
64	COc1cccc(/C=C/C(=O)Oc2ccc(C(=O)c3ccc(F)cc3)cc2)c1	/	/	33	-0.4	-6	i	0.99
65	Cc1cc(=O)oc2cc(OCC(=O)OCC(=O)NC(C)C)ccc12	24	84	93	/	-2	i	1
66	c1ccc2c(c1)nc1n2CCN1	10	134	90	-0.3	3	i	1
67	COc1ccc(CCNC(=O)c2cc3c(C)nccc3[nH]c2=O)cc1OC	/	/	96	/	0	i	0.97
68	O=C(CCn1nnc2ccccc21)Nc1nnc(COc2ccccc2F)s1	36	142	105	1.1	0	i	0.74
69	O=c1[nH]ncc(NCCCO)c1Cl	-419	94	82	-1.2	-5	i	1
70	Cc1ccc(Nc2cc(C)nc(N3CCOCC3)n2)cc1	13	161	100	-0.7	0	i	0.95
71	CCOc1ccc(S(=O)(=O)Nc2cc(OC)c(OC)cc2C(=O)O)cc1	-8	69	106	-2.9	-4	i	0.97
72	COC(CNC(=O)c1cnn2c(C)c(Cc3ccccc3)c(C)nc12)OC	-33	152	104	/	1	i	0.93
73	O=C(CCc1nnc(CCC2CCCCC2)o1)NCCn1cccn1	/	/	114	/	3	i	0.96
74	Cc1cc(-c2c(C)[nH]n(-c3ccc(Cl)cc3)c2=O)n(-c2ccccc2)n1	-24	115	104	-2.2	-6	i	0.85
75	COc1cccc(-c2cc(C(=O)NCC3CCCO3)c3ccccc3n2)c1 (stereo unspecified)	0	72	96	-1.2	-11	i	0.94

Next section
item	SMILES	INS promoter inh	INS promoter inh cell count	RGS16-Gao	GALR2 agonist	PKD1 kinase inh	HSV replic up	HSV replic up primary fold
76	CCOC(=O)N1CCN(C(=O)c2cn(CC)c3cc(N4CCN(C)CC4)c(F)cc3c2=O)CC1	-7	105	103	-1.0	-4	/	/
77	COc1ccc(CCNC(=O)c2ccc(N3CCCC3=O)cc2)cc1	-40	67	96	-2.3	-3	i	0.64
78	COc1ccc(CN2CCc3ccccc3C2)c(OC)c1	/	/	102	/	/	i	1.1
79	Cc1nc2ncnn2c(N2CCN(C(=O)c3cccc(F)c3)CC2)c1Cc1ccccc1	/	/	-5	0.4	0	i	0.95
80	O=C(Nc1ccc(Cl)c(Cl)c1)Nc1nc(-c2ccccc2)cs1	/	/	101	1.7	-3	i	0.81
81	CCCCc1c(O)nc(SCC(=O)c2ccccc2)n(-c2ccccc2C)c1=O	/	/	97	/	/	i	1
82	COc1ccc(N2CCN(C(=O)c3ccccc3F)CC2)c([N+](=O)[O-])c1	/	/	104	/	/	i	0.92
83	COC(=O)CSc1ncccc1-c1nc2ccccc2[nH]1	39	57	105	-0.5	-7	i	0.92
84	Cc1cccc(Cn2nc(C)c(NC(=O)c3ccc(F)cc3)c2C)c1	-7	98	100	/	-10	i	0.99
85	CCOC(=O)c1ccc(N2C(=O)CC(N3CCC(O)(c4ccc(Br)cc4)CC3)C2=O)cc1 (stereo unspecified)	38	109	104	4.5	2	i	0.89
86	COc1ccc(-c2nc(C)sc2C)cc1	-419	56	266	-0.7	-2	i	1.1
87	Cn1c(=O)c2c(ncn2CC(=O)OCC(=O)NCc2ccccc2Cl)n(C)c1=O	-93	81	103	-0.5	-8	i	0.98

Assay outcomes: PubChem BioAssay, several laboratories
